# 2A Renilla – Primary qHTS Assay for Foot and Mouth Disease Virus Antivirals against NCGC Sytravon and CBC Compound Libraries: Renilla Luciferase Signal; HEK cells with a luciferase reporter of 2A StopGo recoding; Potency, µM (top dose mostly 57.5 µM), for the others: at the highest dose signal change, negative = less light; actives 0.32% (n = 120,000); AID 1745857, 2022; active means well fitted falling curve with a large enough effect; inconclusive means small, poorly fitted or top-dose-only effect; inactive means no such curve, though single readings can be large or run the other way; note: nearly all actives have a fitted effect of over 55% in size; overnight with compound
# StopGo FLuc – Primary qHTS Assay for Foot and Mouth Disease Virus Antivirals against NCGC Sytravon and CBC Compound Libraries: Firefly Luciferase Signal. AID 1745856, 2022. HEK cells with a luciferase reporter of 2A StopGo recoding. Potency, µM (series often up to 57.5 µM), inactives show at the top dose signal change, negative = less light. actives 0.23% (n = 120,000); active = well fitted falling curve with a large enough effect; inconclusive = small, poorly fitted or top-dose-only effect; inactive = no such curve, though single readings can be large or run the other way; note: nearly all actives have a fitted effect of over 60% in size; overnight with compound
# Numbers without * were called inactive; ? = inconclusive; [ ] = dose if it differs, or a comment. % is set by controls: 0 for no effect and ±100 for the full control effect; potency is the fitted concentration of half-maximal effect.
# Sample of the layout, four compounds:
# Values in the order – StopGo FLuc, 2A Renilla
CCOC(=O)c1sc2cccc(F)c2c1S(=O)(=O)Nc1ccccc1F
 : -3%, 0%
Cc1cc(Nc2cccc(Cl)c2)n2nc(Cc3ccccc3)nc2n1
 : -1%, -2%
COc1cc2ncc3c(-c4ccccc4)nn(-c4ccc(C)cc4)c3c2cc1OC
 : -24%, -15%
CCC(NC(=O)C1CCCO1)C12CC3CC(CC(C3)C1)C2 (stereo not given)
 : 21%, 18%

# The list itself, repeating the preview:
# Values in the order – StopGo FLuc, 2A Renilla
CCOC(=O)c1sc2cccc(F)c2c1S(=O)(=O)Nc1ccccc1F
 : -3%, 0%
Cc1cc(Nc2cccc(Cl)c2)n2nc(Cc3ccccc3)nc2n1
 : -1%, -2%
COc1cc2ncc3c(-c4ccccc4)nn(-c4ccc(C)cc4)c3c2cc1OC
 : -24%, -15%
CCC(NC(=O)C1CCCO1)C12CC3CC(CC(C3)C1)C2 (stereo not given)
 : 21%, 18%
CC(=O)c1ccc(NS(=O)(=O)c2ccc(C)cc2)cc1
 : 42%[activator], 276%[activator]
C/C(=N/Nc1ccc(C(F)(F)F)cn1)c1ccc([N+](=O)[O-])cc1
 : 41%[activator], 12%
Fc1ccc(-n2ncc3c(Nc4ccc(Oc5ccc(Cl)cc5)cc4)ncnc32)cc1
 : 0%, 14%
c1ccc(-c2ccc(CNCCCn3ccnc3)cc2)cc1
 : 9%, -2%
O=C(Nc1cc(F)ccc1F)c1nc2ccccc2nc1N1CCCCC1
 : 4%, 5%
CC(C)c1nn2c(=O)cc(COC(=O)c3ccco3)nc2s1
 : -14%, -15%
CCc1ccc(-n2c(=O)c3c4c(sc3n(Cc3ccc(C)cc3)c2=O)CCC4)cc1
 : -15%, -14%
CCCn1c(=O)sc2cc(NC(=O)c3ccccc3OCC)ccc21
 : -18%, -5%
O=C(c1nn(Cc2ccccc2)c(=O)c2ccccc12)N1CCCSc2ccccc21
 : -4%, 22%
CCOC(=O)C1CCN(C(=O)c2ccc3c(=O)n4nc(Nc5cc(C)ccc5C)sc4nc3c2)CC1
 : -12%, 0%
CC1CCC(NC(=O)c2cc(-c3ccncc3)nc3ccccc23)CC1 (stereo not given)
 : 139%[activator], 6%
Cc1cc(C)c2oc(C(=O)Nc3ncc(Cc4ccccc4)s3)cc(=O)c2c1
 : -6%, -21%
CC(C)Cc1noc(CSc2cc(C(N)=O)c3ccccc3n2)n1
 : 0%, 20%
CCOC(=O)c1ccc(N2C(=O)c3n[nH]c(-c4ccco4)c3C2c2cccc(OC)c2)cc1 (stereo not given)
 : ?, -28%
CC(Oc1ccccc1)c1nc(-c2ccc(Br)cc2)no1 (stereo not given)
 : 0%, 2%
Cc1ccc2sc(N(CCCN(C)C)C(=O)c3ccco3)nc2c1C
 : 0%, 1%
COc1ccc(Br)cc1CSc1nnc(C2CC2)n1C
 : 4%, 33%[activator]
COc1ccc(-c2cnc(N)nc2-c2ccc(OCc3ccccc3)cc2O)cc1
 : 7%, 6%
Cc1ccc(CNC(=O)CSc2n[nH]c(-c3ccc(F)cc3)n2)cc1
 : 3%, -8%
O=C(NCCCCNC(=O)C(c1ccccc1)c1ccccc1)C(c1ccccc1)c1ccccc1
 : 13%, 8%
O=C1c2ccccc2S(=O)(=O)N1Cc1nc(-c2cccc(Br)c2)cs1
 : 110%[activator], 6%
COc1nc2ccccc2cc1-c1noc(-c2ccncc2)n1
 : 12%, -5%
Cc1ccc(N(C(C)C(=O)NCc2cccnc2)S(C)(=O)=O)cc1C (stereo not given)
 : 24%, 14%
Cc1cc(C(=O)CSc2nnc(COc3ccccc3)n2CCC(C)C)c(C)n1Cc1ccc(F)cc1
 : ?, -15%
O=C(NCCc1csc(-c2ccc(F)cc2)n1)c1cccs1
 : ?, ?
O=C(CN1CCN(C(=O)c2cc(-c3ccccc3)nc3ccccc23)CC1)N1CCOCC1
 : 50%[activator], 15%
O=C(CSc1nc2ccccc2o1)Nc1ccc(O)cc1
 : 41%[activator], 1%
Cc1cc(C)cc(NC(=O)c2cc(CN3CCCC3)on2)c1
 : 91%[activator], -4%
COc1ccc(NC(=O)c2nc3ccccc3nc2N2CCCC2)cc1OC
 : -2%, 1%
CCOC(=O)N1CCN(Cc2cc(=O)oc3ccc(C)cc23)CC1
 : -2%, -5%
N#Cc1cc(NC(=O)C(=O)O)c(Cl)c(NC(=O)C(=O)O)c1
 : 15%[11.5 µM], -1%
O=C1C(O)=C(c2ccc(Cl)cc2)C(c2ccccc2F)N1Cc1ccccc1 (stereo not given)
 : -3%, 8%
COc1cc(C2CC(=O)Nc3c2ncn3-c2cccc(C(F)(F)F)c2)cc2c1OCO2 (stereo not given)
 : 8%, 18%
CC(=O)c1cccc(NC(=O)Cn2c(=O)oc3cc(S(=O)(=O)NC4CCCC4)ccc32)c1
 : 9%, 211%[activator]
CCn1c(=O)cc(OCC(=O)N2CCN(c3ccccc3OC)CC2)c2ccccc21
 : 26%, 41%[activator]
O=C(COc1ccc2c(=O)c(-c3ccccc3)coc2c1)NCCC1=CCCCC1
 : -2%, -9%
COc1ccccc1NC(=O)Cn1c(=O)n(Cc2ccccc2)c(=O)c2sc3ccccc3c21
 : -16%, -1%
NC(Cc1c[nH]c2ccccc12)C(=O)O (stereo not given)
 : 79%[activator], -2%
Cn1c(=O)[nH]c(=O)c2[nH]c(N(Cc3ccccc3)Cc3ccccc3)nc21
 : -11%, -9%
CC1C(c2ccc(F)cc2)=[N+]([O-])C(C)(C(=O)c2ccccc2)N1O (stereo not given)
 : 3%, 56%[activator]
Cc1nc(N2CCOCC2)c2c(C(=O)NCc3cccc(Cl)c3)c(C)oc2n1
 : -16%, -5%
CCOC(=O)C1C(=O)C=C(c2ccc(F)cc2)CC1c1ccc(CC)cc1 (stereo not given)
 : 0%, 9%
CCCCNc1nc2c(c(=O)[nH]c(=O)n2C)n1CC(O)COC(C)C (stereo not given)
 : 6%, 1%
Cc1cccc(N(Cc2nc3nc(C)cc(C)n3n2)S(=O)(=O)c2ccccc2)c1
 : 8%, 97%[activator]
O=C(Nc1c(NC2CCCC2)c2ccccc2oc1=O)NC1CCCCC1
 : -5%, -3%
COc1ccccc1CNC(=O)C1(c2cccs2)CCOCC1
 : -17%, 6%
COc1ccc(S(=O)(=O)N2CCn3cccc3C2c2cccs2)cc1C (stereo not given)
 : 16%, 104%[activator]
Cc1ccc(C(=O)Nc2ccc3oc(C)nc3c2)cc1
 : 95%[activator], -1%
COc1ccccc1C(=O)Oc1ccc(Cl)cc1C(=O)/C=C/c1ccc(F)cc1
 : 0%, 80%[activator]
N/C(=N\c1ncccn1)Nc1ccccc1
 : 26%, 10%
Cc1cccc(OCCn2nc(C(=O)O)c3ccccc3c2=O)c1
 : 18%, 4%
CCCCC1=NN(C(=O)c2ccncc2)C(O)(C(F)(F)F)C1 (stereo not given)
 : -5%, -6%
Cc1c(Cl)cccc1NC(=O)Cn1cc(C#N)c2ccccc21
 : -5%, -1%
COc1ccc(/C=C/c2nnc(Cc3ccccc3)o2)cc1
 : 83%[activator], 21%
N#Cc1cccc(NC(=O)CCSCc2ccccn2)c1
 : 8%, -3%
COCCCN(C)Cc1sccc1C
 : -8%, 5%

# (next part)
# Values in the order – StopGo FLuc, 2A Renilla
CCOC(=O)c1c(C)n(-c2ccccc2)c2ccc(OC(=O)c3ccc(OCC)c(OCC)c3)cc12
 : -12%, 20%
COc1cc(NC(=O)C(C)Sc2ncnc3nc[nH]c23)cc(OC)c1OC (stereo not given)
 : 25%, 22%
COc1ccc2[nH]cc(C(C(=O)O)N3CCN(Cc4cccc(Cl)c4)CC3)c2c1 (stereo not given)
 : 7%, -11%
CCCCC(CC)CNC(=O)c1ccc(Cn2c(=O)[nH]c3cc(OC)c(OC)cc3c2=O)cc1 (stereo not given)
 : -13%, -7%
Cc1nnc(N2CCC(C(=O)NCc3ccc(F)cc3)CC2)c2nn(-c3ccc(Cl)cc3)c(C)c12
 : -8%, -14%
O=C(COc1ccccc1)Nc1sc2c(c1C(=O)Nc1ccccc1)CCCCC2
 : 9%, -6%
CCOCCOC(=O)COc1ccc2c(=O)c(Oc3cc(C)ccc3C)coc2c1
 : -5%, -5%
CCOc1ccc(NC(=O)CSc2ccc3ccccc3n2)cc1
 : 77%[activator], 29%
CCCCNC(=O)C1CCN(S(=O)(=O)c2cc(Br)cc3c2N(C(=O)CC)CC3)CC1
 : -19%, 22%
CC(C)CNc1oc(-c2ccc(S(=O)(=O)N(C)C)cc2)nc1C#N
 : -8%, 2%
O=C(C[N+]1(CC#Cc2ccccc2)CCOCC1)c1ccc(Cl)cc1
 : -16%, -22%
COc1ccc2cc(C(=O)N3CCN(S(=O)(=O)c4ccc(C)cc4C)CC3)c(C)nc2c1
 : -13%, -23%
COc1ccc(NC(=O)Cc2ccccc2)c2cccnc12
 : 0%, 7%
Brc1ccc(C2=NOC(c3cccs3)C2)cc1 (stereo not given)
 : 210%[activator], 20%
COc1ccccc1C(NC(=O)c1csc(-c2ccco2)n1)c1nccn1C (stereo not given)
 : 9%, 1%
COc1cc2c(cc1NC(=O)Cc1ccccc1C)oc1ccccc12
 : 0%, 210%[activator]
Cc1cc(C(=O)NC(C)c2ccc(C(F)(F)F)cc2)c(C)o1 (stereo not given)
 : 4%, 11%
Cc1ccc(CC(=O)N(C)Cc2nc(-c3ccccc3)no2)cc1
 : 0%, 9%
Cc1ccc(C)c(Cn2c(N3CCC(C(=O)N4CCC5(CC4)OCCO5)CC3)nc3ccccc32)c1
 : -21%, -13%
Cc1cc(=O)oc2cc(OCC(=O)N3CCc4sccc4C3c3ccccc3)ccc12 (stereo not given)
 : -13%, 12%

# 3 structures out of the list, sorted by SMILES length, lowest first.
# Values in the order – StopGo FLuc, 2A Renilla
Cc1cc(Nc2cccc(Cl)c2)n2nc(Cc3ccccc3)nc2n1
 : -1%, -2%
COc1ccccc1C(NC(=O)c1csc(-c2ccco2)n1)c1nccn1C (stereo not given)
 : 9%, 1%
CCCCC(CC)CNC(=O)c1ccc(Cn2c(=O)[nH]c3cc(OC)c(OC)cc3c2=O)cc1 (stereo not given)
 : -13%, -7%

# The list goes on.
# Values in the order – StopGo FLuc, 2A Renilla
O=C(NC(c1ccccc1)c1ccccc1)c1cc2ccccc2oc1=O
 : 10%, -4%
CCOC(=O)c1ccc2ncc(C(=O)OCC)c(Nc3cc(C)ccc3OC)c2c1
 : -11%, -7%
COc1ccc(C)cc1NC(=O)C(CCSC)NS(=O)(=O)c1ccc2c(c1)oc(=O)n2C (stereo not given)
 : 28%, 33%
Cc1ccc2c(C)c(C(=O)N(Cc3ccc(Cl)cc3)C3CCS(=O)(=O)C3)oc2c1 (stereo not given)
 : -17%, 20%
O=c1oc2ccccc2c(NC2CCCC2)c1NS(=O)(=O)c1ccc(Br)s1
 : -2%, -1%
Cn1c(=O)c2c(ncn2CCOCCOc2ccccc2)n(C)c1=O
 : 13%, -5%
CSc1cccc(NC(=O)c2ccc3c(c2)OCC(=O)N3)c1
 : 69%[activator], 4%
O=C(NC1CCCc2ccccc21)c1ccc2c(Cl)c3c(nc2c1)CCCC3 (stereo not given)
 : 47%[activator], 71%[activator]
Cc1ccccc1C(=O)Nc1nnc(S(=O)(=O)N2CCCc3ccccc32)s1
 : 15%, -10%
COc1ccc2oc(=O)c(-c3nc(-c4cc(OC)c(OC)c(OC)c4)no3)cc2c1
 : -14%, -7%
C=CCNC(=S)NNC(=O)Nc1ccccc1
 : 1%, 66%[activator]
O=S(=O)(NCC(c1ccco1)N1CCN(c2ccccc2)CC1)c1ccccc1 (stereo not given)
 : -20%, 1%
COc1ccc(-c2c(-c3ccc(OCCN4CCC(C(N)=O)CC4)cc3O)n[nH]c2C)cc1
 : -8%, -6%
COc1ccccc1CN1CCN(C2CCN(C(=O)NC(C)C)CC2)C(=O)C1=O
 : -19%, -9%
CCCCCC(C)NS(=O)(=O)Cc1ccc([N+](=O)[O-])cc1 (stereo not given)
 : 11%, 4%
COc1ccc(CNC(=O)c2ccc(CNS(=O)(=O)c3ccc(OC)cc3)cc2)cc1
 : 0%, 0%
COc1ccc(-c2cnc(CCC(=O)N3CCS(=O)CC3)o2)cc1
 : 27%, -4%
CCCn1cc(C(=O)N2CCC(n3cccc3)CC2)c2ccccc21
 : -19%, 29%
COc1cc(/C=C/c2nc3cc(Cl)ccc3c(=O)n2-c2cccc(C(F)(F)F)c2)cc(OC)c1OC
 : ?, -30%
Cc1nn(C(C)C(=O)NCc2ccco2)c(=O)c2c1sc1ccccc12 (stereo not given)
 : -22%, -17%

# Some values from above:
# O=C(Nc1c(NC2CCCC2)c2ccccc2oc1=O)NC1CCCCC1 in 2A Renilla → -3%
# CCOc1ccc(NC(=O)CSc2ccc3ccccc3n2)cc1 in 2A Renilla → 29%
# O=S(=O)(NCC(c1ccco1)N1CCN(c2ccccc2)CC1)c1ccccc1 (stereo not given) in StopGo FLuc → -20%
# O=C(COc1ccc2c(=O)c(-c3ccccc3)coc2c1)NCCC1=CCCCC1 in StopGo FLuc → -2%
# COc1cc2ncc3c(-c4ccccc4)nn(-c4ccc(C)cc4)c3c2cc1OC in StopGo FLuc → -24%

# Other entries
# Values in the order – StopGo FLuc, 2A Renilla
Cn1c(Oc2ccc3c(c2)OCO3)nc2c1c(=O)n(Cc1ccccc1)c(=O)n2C
 : 6%, 2%
Cc1ccccc1NC(=O)CSC1=Nc2ccccc2C2=NC(CCC(=O)NCc3ccccc3)C(=O)N12 (stereo not given)
 : -6%, -13%
COc1ccc(C(=O)Cn2c(N3CCCCCC3)nc3c2c(=O)n(C)c(=O)n3C)cc1
 : 14%, 2%
COc1cc(/C=C/C(=O)O)c(Br)cc1OCCc1ccccc1
 : 0%, 0%

# High-throughput results: PubChem BioAssay, National Center for Advancing Translational Sciences (NCATS)
